Assay outcomes deposited in PubChem BioAssay by National Center for Advancing Translational Sciences (NCATS).
Resorufin fluor – compound fluoresces in the resorufin spectral region | 0.04% of 59,000 active | max dye-equivalent concentration, M | Compound fluorescence, resorufin region 547/598 nm, buffer; hits give high values; active = above 10 nM dye equivalent; inconclusive = 1 to 10 nM; inactive = 1 nM or less; a few of its hits are not listed in these tables; also: highest value over a series up to 38 µM
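Tris 100 mM pH 8.0; compound added, 15 min RT; CCD imager read, ex 547 nm/em 598 nm; signal normalized to resorufin standard curve (six concentrations per plate) as dye-equivalent concentration.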
A488 autofl – compound autofluorescence in A488 spectral region | compound autofluorescence, A488 spectral region, dye equivalency; hits give high values | max dye equivalency, M | 0.1% of 59,000 active | AID 591; active = above 10 nM dye equivalent; inconclusive = 1 to 10 nM; inactive = 1 nM or less; about half of its hits are not listed in these tables;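 also: highest value over a series up to 38 µM; compound alone in buffer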
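Autofluorescence read at ex 480/em 540 nm after 15 min RT in 100 mM Tris pH 8.0; compound signal normalized to A488 standard series on each plate, reported as dye-equivalent concentration at each test concentration.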
TSHR agonist – activates the human thyroid stimulating hormone receptor; P16473; HEK293-CNG-TSHR cells (CNG channel as cAMP sensor), membrane potential dye, cAMP; Potency, µM (doses to about 57.1 µM), inactives show at the top dose activation, actives largely listed as activators; 0.48% of 73,000 active; AID 926; active = well fitted activation curve of enough size with the parental cells flat; inconclusive = any curve in the parental cells; inactive = parental cells flat and receptor cells flat or falling; also: potency is read from the fitted curve at half-maximal effect; % of control where 0% means no effect; weak receptor curves with flat parental cells got no call and are not listed
Target sequence (P16473 whole entry, looked up): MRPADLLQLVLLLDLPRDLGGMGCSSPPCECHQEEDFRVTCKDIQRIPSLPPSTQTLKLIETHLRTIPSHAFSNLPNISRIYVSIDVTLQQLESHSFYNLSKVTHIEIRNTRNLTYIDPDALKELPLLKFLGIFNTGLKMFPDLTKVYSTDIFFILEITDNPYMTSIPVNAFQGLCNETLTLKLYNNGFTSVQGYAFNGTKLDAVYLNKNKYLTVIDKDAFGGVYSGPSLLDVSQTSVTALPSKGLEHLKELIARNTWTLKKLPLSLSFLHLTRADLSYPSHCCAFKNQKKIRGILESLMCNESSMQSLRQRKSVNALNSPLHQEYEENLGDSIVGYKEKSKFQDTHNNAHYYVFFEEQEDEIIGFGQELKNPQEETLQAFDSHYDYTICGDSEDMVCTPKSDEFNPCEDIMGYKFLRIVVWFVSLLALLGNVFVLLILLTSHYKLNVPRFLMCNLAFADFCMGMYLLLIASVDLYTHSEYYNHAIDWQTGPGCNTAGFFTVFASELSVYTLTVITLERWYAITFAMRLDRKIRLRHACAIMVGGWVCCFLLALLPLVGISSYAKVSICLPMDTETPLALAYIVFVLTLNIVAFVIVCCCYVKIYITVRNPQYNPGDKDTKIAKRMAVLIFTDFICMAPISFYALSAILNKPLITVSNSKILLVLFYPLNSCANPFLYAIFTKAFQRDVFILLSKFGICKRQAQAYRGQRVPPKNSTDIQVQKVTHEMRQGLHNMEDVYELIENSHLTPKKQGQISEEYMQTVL
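cAMP rise detected as CNG-channel membrane depolarization by fluorescent dye (emission 590 nm), 30 min after compound, following 60 min dye loading containing 100 uM RO 20-1724 at room temperature. Cells: TSHR/CNG HEK 293, with parental CNG HEK 293 as control.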
AID923 – qHTS Assay for Allosteric/Competitive Inhibitors of Caspase-1: Spectroscopic Profiling in AFC Spectral Region. compound fluorescence, AFC spectral region (405/520 nm); almost no hit is shown here. Potency, µM (series often up to 57.5 µM), inactives show at the highest dose fluorescence increase, usual class: activators. 1.1% of 75,000 active; active = well fitted activation curve with a large enough effect; inconclusive = small, poorly fitted or top-dose-only effect;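 also: potency is read from the fitted curve at half-maximal effect; 0% is about no effect; scaled to a free AFC standard on each plate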
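Compound autofluorescence profiled at 405 nm ex/520 nm em during kinetic caspase 1 run (50 nM enzyme, 5 uM Ac-WEHD-AFC, HEPES pH 7.5, 10 mM DTT). Titration up to 57 uM; baseline from regression intercept, normalized to AFC standard curve.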
A647 fluor – A647 region autofluorescence | Compound fluorescence, A647 channel (570/671 nm), Tris buffer | 59,000 tested, under 10 active | AID 592 | max dye-equivalent concentration, M; active means above 1 µM dye equivalent; inconclusive means 0.1 to 1 µM; inactive means 0.1 µM or less;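 also: values scaled relative to a standard on each plate; highest value over a series up to 38 µM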
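Buffer was dispensed, compounds and Alexa 647 standards were pin-transferred, and plates sat 15 min at room temperature. Intensity at 570/671 nm was then converted to dye-equivalent concentration using the plate's A647 standard curve.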
Starred values were filed as active, the others as inactive; i = inactive; ? = inconclusive; . = not tested or not shown; & = joins results of further samples; [ ] = another dose, or the depositor's remark. The list is partial; count on the stated rates, not on these rows.

SMILES	Resorufin fluor	A488 autofl	TSHR agonist	AID923	A647 fluor
CCC(=O)Nc1ccc(C(=O)n2ccc(C)n2)cc1	i	i	7.0%	1.0%	1e-09
COc1cc(C)c(Cl)cc1S(=O)(=O)N(C)C	i	i	.	1.2%	1.9e-09
COc1cc(CNCCO)ccc1OCC(=O)Nc1ccc(Br)cc1	i	i	13.5%	3.0%	4.27e-08
N#Cc1ccccc1Cn1c(-c2cscn2)nc2ccccc21	.	.	22.5%[11.4 µM]	-1.2%	.
CCCc1cc(Nc2cccc(OC)c2)n2ncnc2n1	i	i	18.5%	-2.7%	2.95e-08
CN1CCN(c2ncncc2-c2ccc(C(=O)N(C)C)cc2)CC1	i	i	?	4.8%	6.5e-09
c1cc(C(c2nnnn2C2CCCC2)N2CCOCC2)ccn1 (centres undefined)	i	i	-9.2%	-0.4%	7.8e-09
O=C(O)CSc1c2c(nc3cc(C(=O)N4CCOCC4)ccc13)CCCC2	i	i	?	18.1%	1e-09
CN(Cc1ccco1)c1ncnc2ccc(-c3ccc4c(c3)OCO4)cc12	i	i	?	0.8%	1e-09
CCOC(=O)c1sc(N(Cc2ccccc2)C(=O)CN2C(=O)CN(C)C2=O)nc1C	i	i	7.0%	0.5%	8.9e-09
COc1cc(N=Cc2c(O)[nH]c3ccccc23)cc(OC)c1OC	.	.	-8.0%	-0.3%	.
CS(=O)(=O)N1CCC[C@@]2(CCN(Cc3ccc(C#N)cc3)C2)C1	i	i	2.3%	0.9%	2.35e-08
COc1cccc(-c2ccc3ncnc(Nc4ccccc4)c3c2)c1	i	i	?	4.1%	1e-09
CC(C)Cn1c(Br)nc2c1c(=O)n(CCC#N)c(=O)n2C	i	i	?	2.4%	3.88e-08
CCC(C)N(C(=O)COC(=O)c1cn(CC)c2nc(C)ccc2c1=O)C1CCS(=O)(=O)C1 (centres undefined)	i	i	-1.2%	-0.1%	1.07e-08
CCC/C=C(\CCC)C(NS(=O)(=O)c1ccccc1)c1ccc(C(F)(F)F)cc1 (centres undefined)	.	.	?	0.1%	.
O=C1CN(c2nc3ccccc3n3cnnc23)CC(=O)N1CCc1ccccc1	.	.	1.7%	-0.6%	.
CCOC(=O)N1CCN(S(=O)(=O)c2ccc(OC)c(Cl)c2)CC1	i	i	0.4%	1.0%	3.51e-08
COc1cccc(NC(=O)c2ccc3c(c2)N(CC(=O)N2CCCCC2)C(=O)C(C)(C)O3)c1	i	i	1.5%	10.3%	1.01e-08
Cn1c(=O)c2c(nc(NCc3ccc4c(c3)OCO4)n2Cc2ccccc2F)n(C)c1=O	i	i	.	.	7.29e-08
Cc1cc(OCC(=O)NCCN2CCOCC2)cc(C)c1Br	.	.	-0.4%	-1.5%	.
N#Cc1cccc(-c2nc(NCc3ccccc3)c3ccccc3n2)c1	i	i	14.7%	0.8%	3.88e-08
COc1ccccc1N(C(C)=O)C1SC(=O)N(c2ccccc2)C1=O (centres undefined)	i	i	27.4%	-2.0%	1e-09
CCCCn1c(SCc2c(C)noc2C)nc2cc(S(N)(=O)=O)ccc21	i	i	?	-0.8%	4.2e-09
COc1ccc([C@@H](Nc2ncccn2)c2cc3c(cc2O)OCO3)cc1	i	i	0.0%[11.4 µM]	-3.6%[11.5 µM]	1e-09
SMILES	Resorufin fluor	A488 autofl	TSHR agonist	AID923	A647 fluor
CCOc1ncccc1C(=O)OCC(=O)Nc1cc(C(=O)OC)ccc1C(=O)OC	i	i	18.3%	0.1%	1.2e-09
COC(=O)c1ccccc1NC1c2ccccc2C(=O)N1c1cccnc1 (centres undefined)	.	.	?	-2.0%	.
c1ccc(-c2nc(N3CCCCCC3)c3ccccc3n2)nc1	i	i	?	2.3%	1.2e-08
c1ccc(-n2nnnc2-n2cnc3ccccc32)cc1	i	i	.	-1.5%	2e-08
CC1CCCC(C)N1S(=O)(=O)c1ccc(NC(=O)c2ccccc2C(=O)N2CCOCC2)cc1 (centres undefined)	i	i	10.1%	2.1%	1e-09
CCNc1ccc(C(=O)OCC)cc1NC(=O)c1cccc(S(=O)(=O)N2CCOCC2)c1	i	i	?	0.3%	1e-09
CN(Cc1nc2ccccc2n1C)S(=O)(=O)c1ccc(F)cc1	i	i	.	-0.8%	4.22e-08
COc1cc(S(=O)(=O)NC2CCCCC2C)ccc1Cl (centres undefined)	i	i	-2.9%	-1.7%	1e-09
CC(C)CC(=O)N1CCN(C(=O)CCC2CCCC2)CC1	.	.	0.0%	-0.2%	.
C=CCn1c(Cc2cccs2)nnc1SCC(=O)c1cccc(Br)c1	i	i	?	-0.9%	3.69e-08
CN(C)CCNc1nc2c(c(=O)[nH]c(=O)n2C)n1CCCc1ccccc1	.	.	-8.9%	-0.5%	.
CN1C(=S)SC(N(O)C(=O)NC2CCCCC2)C1(C)C (centres undefined)	i	i	1.3%	-0.2%	5.4e-09
CC1=C(C(N)=O)C(c2ccccc2)n2nc(-c3cccc(C)c3)nc2N1 (centres undefined)	.	.	-13.8%	-1.4%	.
CSc1nnc(Cn2c(=O)sc3ccccc32)n1-c1ccccc1	.	.	6.1%	-2.3%	.
Cc1ccc(-n2nc(C(=O)NCc3ccco3)c3c4ccccc4n(C)c3c2=O)cc1	i	i	?	-5.1%	2.07e-08
CC(=O)Nc1ccc(S(=O)(=O)N(C)CC(=O)Nc2ccccc2N2CCOCC2)cc1	i	i	-9.0%	1.5%	1e-09
C#CCCCO/N=C1/C[C@@H](O)[C@@H](O)[C@@H]2[C@@H]3C(=O)N(CC)C(=O)[C@H]3CC[C@H]12	.	.	3.3%[11.4 µM]	-2.6%[11.5 µM]	.
O=C(C1Cc2ccccc2CN1S(=O)(=O)c1ccc(F)cc1)N1CCCCCC1 (centres undefined)	i	i	?	-0.5%	1e-09
COc1ccc2c(-c3ccccc3)cc3nnnn3c2c1	i	i	?	0.0%	2.06e-08
O=C(N1CCN(CCO)CC1)N1c2ccccc2C=Cc2ccccc21	i	i	6.2%	0.5%	2.26e-08
CCOC(=O)CSC1=C(C#N)C(c2ccccc2OCC)C(C#N)C(=O)N1 (centres undefined)	i	i	?	-2.9%	4.4e-09
COCCn1c(=O)c(-c2ccccc2)nc2cnc(Oc3cccc(Cl)c3)nc21	i	i	6.5%	17.2%	2.29e-08
CC(C)(C)C(=O)OCOC(=O)[C@@H]1N2C(=O)[C@@H](NC(=O)[C@H](N)c3ccccc3)[C@H]2SC1(C)C	i	i	-2.6%[25.6 µM]	-0.8%[25.7 µM]	2.95e-08
COc1ccc(S(=O)(=O)N(CCN2CCOCC2)Cc2cc(OC)ccc2OC)cc1	i	i	12.2%	1.5%	1e-09
CCOc1ccc(CCNC(=O)C2CCN(c3nn4c(=O)cc(C)nc4s3)CC2)cc1	i	i	0.7%	-1.4%	2.81e-08
SMILES	Resorufin fluor	A488 autofl	TSHR agonist	AID923	A647 fluor
O=C1CC(C(=O)Nc2ccccc2)C2(CCCC2)O1 (centres undefined)	i	i	-27.0%	-0.3%	2.17e-08
CCC1(C)Cc2c(C#N)c(N)sc(=S)c2CO1 (centres undefined)	i	i	.	.	1e-09
CC(C)[C@H](NC(=O)NCCc1ccc(F)cc1)C(=O)O	i	i	10.3%	0.2%	5.1e-09
CCOc1ccc(NC(=O)C2CC(=O)N(C(C)C)C2)cc1 (centres undefined)	i	i	0.8%	0.1%	1.72e-08
CCOc1ccccc1C1CC(=O)NC(SCC)=C1C#N (centres undefined)	i	i	9.0%	0.0%	1e-09
N#CC(=C1SC=CS1)c1nc(-c2ccccc2)cs1	i	i	-2.6%[11.4 µM]	-0.3%	2.44e-08
NC(=O)C1CCN(Cc2nnnn2Cc2ccco2)CC1	i	i	-0.6%	3.9%	2.85e-08
Cn1c(=O)c2c(nc(Br)n2Cc2c(F)cccc2Cl)n(C)c1=O	i	i	0.7%	-0.3%	1.82e-08
COc1ccc(C)cc1NC(=O)c1ccc(NC(=O)CC2SC(N3CCCC3)=NC2=O)cc1 (centres undefined)	i	i	0.1%	-1.5%	5e-09
CC(C)CC(c1nnnn1Cc1ccccc1)N1CCN(C(=O)c2ccco2)CC1 (centres undefined)	i	i	17.6%	1.1%	1e-09
Cc1cc(N2C(=O)C3C4C=CC(C4)C3C2=O)no1 (centres undefined)	i	i	2.2%	4.6%	1e-09
COc1cc2nc(SCC(=O)NC3CC3)n(CCC3=CCCCC3)c(=O)c2cc1OC	i	i	5.1%	0.0%	1e-09
CCN(CC)S(=O)(=O)c1ccc(-c2nnc(SCc3nnc(-c4ccccc4)o3)o2)cc1	i	i	?	1.4%	2.39e-08
CCc1cc(=O)oc2cc(C)c(CN3CCCC(C)C3)c(O)c12 (centres undefined)	i	i	.	.	9.8e-09
Brc1ccc(-c2nnc3sc(CNCc4ccc5c(c4)OCO5)cn23)cc1	.	.	1.9%	1.1%	.
COc1c2occc2cc2ccc(=O)oc12	i	i	?	-1.8%	3.95e-08&3.76e-08
CCOC(=O)c1c(NC(=O)CN2CCN(c3ccccn3)CC2)sc2c1CCCC2	i	i	7.9%	5.5%	2.8e-09
O=C(NCCc1ccccc1)C1CCN(S(=O)(=O)c2cccc3nonc23)CC1	i	i	-3.2%	0.2%	3.2e-09
Cc1ccc(CCCC(=O)O)cc1C	i	i	5.2%[11.4 µM]	1.1%[11.5 µM]	3e-09
O=C(c1cnccn1)N(c1ccccc1)C1(C(=O)NC2CCCCC2)CCCCC1	i	i	5.8%	-1.0%	1.86e-08
CN(C)c1ccc(NC(=S)c2ccccn2)cc1	.	.	-28.4%	0.3%	.
NC(=O)C1CCN(c2oc(-c3ccccc3F)nc2S(=O)(=O)c2ccc(Cl)cc2)CC1	i	i	5.8%	0.1%	1.1e-09
CC(=O)c1c(C)nn(CC(O)COc2ccc3c(c2)CCC3)c1C (centres undefined)	i	i	9.7%	0.9%	3.12e-08
Cc1ccccc1OCCn1nc(C(=O)O)c2ccccc2c1=O	i	i	?	-0.2%	1e-09
COc1ccc(-n2nnc3c(=O)n(CC(=O)NCC4CCCO4)cnc32)cc1 (centres undefined)	i	i	5.4%	-3.0%	1e-09
O=c1[nH]c(C2CCCN(S(=O)(=O)c3ccccc3)C2)nc2c1nnn2Cc1ccccc1F (centres undefined)	i	i	16.9%[11.4 µM]	1.7%	4.04e-08
Cc1occc1-c1nnc(SCC(=O)c2ccc(F)cc2)o1	i	i	?	-0.4%	1.16e-08
O=C(NC1CCCCC1)NC1CCN(S(=O)(=O)c2ccc3c(c2)OCCO3)CC1	i	i	-3.3%	0.3%	1.38e-08
CCc1ccc2[nH]c(=O)c(C(c3nnnn3CCOC)N3CCN(c4ccccc4)CC3)cc2c1 (centres undefined)	i	i	.	5.0%	5.94e-08

One compound at a time (already shown). Screens in order: Resorufin fluor | A488 autofl | TSHR agonist | AID923 | A647 fluor
CCOC(=O)c1c(NC(=O)CN2CCN(c3ccccn3)CC2)sc2c1CCCC2 is entered as i | i | 7.9% | 5.5% | 2.8e-09
CC(C)CC(c1nnnn1Cc1ccccc1)N1CCN(C(=O)c2ccco2)CC1 (centres undefined) is entered as i | i | 17.6% | 1.1% | 1e-09
COc1cc(CNCCO)ccc1OCC(=O)Nc1ccc(Br)cc1 is entered as i | i | 13.5% | 3.0% | 4.27e-08
CCc1ccc2[nH]c(=O)c(C(c3nnnn3CCOC)N3CCN(c4ccccc4)CC3)cc2c1 (centres undefined) is entered as i | i | . | 5.0% | 5.94e-08

Shown with two lines to a compound: part of the list above
Order of results – Resorufin fluor	A488 autofl	TSHR agonist	AID923	A647 fluor
- O=C(NCCc1ccccc1)C1CCN(S(=O)(=O)c2cccc3nonc23)CC1
  i	i	-3.2%	0.2%	3.2e-09
- Cc1ccc(CCCC(=O)O)cc1C
  i	i	5.2%[11.4 µM]	1.1%[11.5 µM]	3e-09
- O=C(c1cnccn1)N(c1ccccc1)C1(C(=O)NC2CCCCC2)CCCCC1
  i	i	5.8%	-1.0%	1.86e-08
- CN(C)c1ccc(NC(=S)c2ccccn2)cc1
  .	.	-28.4%	0.3%	.
